High-throughput results: PubChem BioAssay, Southern Research Institute
Mtb H37Rv – Confirmatory growth inhibition assay against Mycobacterium tuberculosis H37Rv, potency (AID 1949). most inactive calls were filed without a number and no value below 0 was filed. inhibition, % at 10 µg/mL; hits with a dose series show IC50 in µg/mL. hit rate 1.6% among 100,000;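 active = confirmed in a dose series; inconclusive = about 50% or more but not retested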;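 note: bacteria grown 7 days with compound before Alamar blue readout; 0% = untreated bacteria and 100% = reference antibiotic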
* = called active by the depositor; i = inactive; ? = inconclusive. A portion of the library, so the mix of outcomes need not match the whole.

Preview, 2 compounds:
nr | mol | Mtb H37Rv
1 | O=C(Nc1ccc(F)cc1F)c1ccc(-c2ccc(Br)cc2)o1 | i
2 | COc1cccc(C2Nc3ccccc3NC3=C2C(=O)CC(c2ccc(C)cc2)C3)c1OC (stereo not drawn) | 4%

All compounds of this part, repeating the preview:
nr | mol | Mtb H37Rv
1 | O=C(Nc1ccc(F)cc1F)c1ccc(-c2ccc(Br)cc2)o1 | i
2 | COc1cccc(C2Nc3ccccc3NC3=C2C(=O)CC(c2ccc(C)cc2)C3)c1OC (stereo not drawn) | 4%
3 | Cc1sc2ncn(Cc3c(F)cccc3Cl)c(=O)c2c1C | 1%
4 | COc1ccc(Cl)cc1NC(=S)NCc1ccc(-n2cccn2)cc1 | 1%
5 | O=C(Cn1cnc2c(cnn2-c2ccccc2)c1=O)N1CCCCC1 | i
6 | CCOC(=O)c1c(NC(=O)c2ccc(OC)cc2OC)sc2c1CCCC2 | i
7 | CCCS(=O)(=O)N1CCN(C(=O)CCC2CCCC2)CC1 | i
8 | O=C(Nc1ccc(N2C(=O)CCC2=O)cc1Cl)c1ccco1 | i
9 | COc1ccc(C(=O)Nc2ccccc2C(=O)NCCN2CCOCC2)cc1 | i
10 | CCS(=O)(=O)c1ccc(O)c(NC(=O)COc2ccccc2)c1 | i
11 | Cc1cc(C)cc(NC(=S)N2CCC(C(N)=O)CC2)c1 | i
12 | CCOc1cccc(N2C(=O)/C(=C/c3ccc(Sc4ccccc4)o3)C(=O)NC2=S)c1 | 4%
13 | Cc1cccc(N2CC(C(=O)Nc3ccc(Cl)cc3Cl)CC2=O)c1C (stereo not drawn) | i
14 | CC(C)(C)c1ccc(C(=O)NCCOc2cccc(Cl)c2Cl)cc1 | 7%
15 | O=C(CSc1nc2ccccc2c(=O)[nH]1)Nc1ccc(F)cc1F | i
16 | COC(=O)c1ccc(Nc2ncnc3scc(-c4ccccc4)c23)cc1 | i
17 | CC1(C(=O)Nc2ccc3c(c2)OC2(CCCCC2)O3)CC1(Cl)Cl (stereo not drawn) | 1%
18 | Cc1nc2ccc(NC(=O)Nc3ccc(N4CCOCC4)cc3)cc2s1 | 1%
19 | O=Cc1ccc(OC(=O)c2ccc3c(c2)OCO3)cc1 | i
20 | O=C1CS/C(=N\C(=O)NC2CCCCC2)N1 | i
21 | COC(=O)C1CCN(C(=O)c2cc3ccccc3oc2=O)CC1 | 2%
22 | O=C(Nc1cc(C(F)(F)F)ccc1Oc1ccc(Cl)c(Cl)c1)c1cccnc1 | i
23 | COc1ccc(Cn2c(=S)[nH]c3ccccc32)cc1 | i
24 | N/C(=N\c1nc(CSc2ccc(Cl)cc2)cc(=O)[nH]1)Nc1cccc2ccccc12 | i
25 | O=C(Nc1ccc(Oc2ccc(Br)cc2)cc1)C1C2CC3OC(=O)C1C3C2 (stereo not drawn) | 6%
26 | Cc1ccc(-c2nc3ccccc3o2)cc1NC(=O)c1cncc(Br)c1 | i
27 | Cc1cccc(NC(=O)c2cc([N+](=O)[O-])ccc2NCCN)c1 | i
28 | CC(C)NC(=O)NC(c1ccccc1)c1ccccc1 | i
29 | COc1ccc(S(=O)(=O)Nc2ccccn2)cc1OC | i
30 | CNC(=O)c1cc(Nc2nnc(-c3ccc(C)cc3)c3ccccc23)ccc1OC | i
31 | COc1cccc(S(=O)(=O)Nc2ccc(C(=O)N3CCC(Cc4ccccc4)CC3)cc2)c1 | 9%
32 | c1ccc(-c2cn3ccsc3n2)cc1 | i
33 | CN(CCCc1nc2ccccc2[nH]1)S(=O)(=O)c1ccc(Cl)cc1 | i
34 | CCOC(=O)c1c(NC(=O)c2cccc([N+](=O)[O-])c2C)sc2ccccc12 | i
35 | Cc1cc2nc(Nc3nc(C)c(Cc4ccccc4)c(=O)[nH]3)nc(C)c2cc1C | i
36 | COc1ccc(Oc2nc(C)cc(OC)n2)nn1 | i
37 | COc1ccc(CCNC(=O)Cn2cnc3sc4c(c3c2=O)CCC(C)C4)cc1OC (stereo not drawn) | i
38 | Cc1cc(C(=O)Nc2cccc(-c3nc4ncccc4o3)c2)ccc1[N+](=O)[O-] | i
39 | CN1CCC(OC(=O)c2ccco2)CC1 | i
40 | COC(=O)c1ccc(C2C3C(=O)N(Cc4ccccc4)C(=O)C3ON2c2ccccc2)cc1 (stereo not drawn) | i
41 | O=C(Nc1ccc2c(c1)OCO2)c1ccc(Cl)cc1Cl | i
42 | O=C(CC1Nc2ccccc2NC1=O)Nc1ccc(N2CCCCC2)cc1 (stereo not drawn) | i
43 | CCC(Oc1ccccc1)C(=O)Nc1ccc(Cl)cc1 (stereo not drawn) | 36%
44 | COc1ccc(S(=O)(=O)N(CC(=O)O)c2cc(C)cc(C)c2)cc1OC | i
45 | O=C(CN(Cc1ccccc1)S(=O)(=O)c1cc(Cl)ccc1Cl)Nc1ccc(F)cc1F | 6%

Part of the list above in a different format.
28: CC(C)NC(=O)NC(c1ccccc1)c1ccccc1
  Mtb H37Rv = i
29: COc1ccc(S(=O)(=O)Nc2ccccn2)cc1OC
  Mtb H37Rv = i
30: CNC(=O)c1cc(Nc2nnc(-c3ccc(C)cc3)c3ccccc23)ccc1OC
  Mtb H37Rv = i
31: COc1cccc(S(=O)(=O)Nc2ccc(C(=O)N3CCC(Cc4ccccc4)CC3)cc2)c1
  Mtb H37Rv = 9%

Going on with the list:
nr | mol | Mtb H37Rv
46 | CCc1cccc(OCC(=O)Nc2sc3c(c2C(N)=O)CCCC3)c1 | i
47 | O=C(Cc1ccc(Cl)cc1)Nc1ccc2oc(=O)ccc2c1 | i
48 | CCOc1ccc(NC(=O)C2CC(=O)N(c3ccc(CC)cc3)C2)cc1 (stereo not drawn) | i
49 | CC(C)c1ccccc1NC(=O)c1cnccn1 | 3%
50 | Cc1ccc2cccc(NC(=O)C(F)(F)F)c2n1 | i
51 | C=CCN1C(=S)N(c2ccc(OC)cc2)C2CS(=O)(=O)CC21 (stereo not drawn) | i
52 | Cc1cccc(C(=O)Nc2ccccc2N2CCOCC2)c1 | i
53 | CC(C)(C)c1ccccc1NC(=O)Cc1cccs1 | i
54 | O=S(=O)(Cc1ccccc1)Nc1cc(F)cc(F)c1 | i
55 | CC1CC(C)CN(CCOc2cccc(Cl)c2Cl)C1 (stereo not drawn) | 4%
56 | Nc1cc(=O)[nH]c(SCc2ccc(Br)cc2)n1 | i
57 | CCCN(CCC)S(=O)(=O)c1ccc(NC(=O)c2ccccc2Br)cc1 | i
58 | C=CCOc1ccc(C2C3=C(CCCC3=O)N(C)C3=C2C(=O)CCC3)cc1 | i
59 | O=C(NCCc1ccc(Cl)cc1)Nc1ccc(F)cc1 | 4%
60 | CN(C)c1nc(N)nc(CSc2ccccn2)n1 | i
61 | CCOc1ccccc1NC(=O)c1ccc(OCC(=O)Nc2ccc(C)cc2C)cc1 | i
62 | CCOC(=O)c1c(NC(=O)Cn2cnc3ccccc3c2=O)sc2c1CCCC2 | i
63 | Cn1c(Cc2ccccc2)nnc1SCCC(=O)Nc1ccccc1 | i
64 | O=S(=O)(Nc1ccc(F)cc1)c1cccc(F)c1 | 1%
65 | O=C(COc1ccc(Cl)cc1)NCCC12CC3CC(CC(C3)C1)C2 | 44µg/mL*
66 | CN(C)C(=O)Oc1cccc2c(OC(=O)N(C)C)cccc12 | i
67 | Nc1nnc(SCC(=O)N2c3ccccc3Sc3ccc(C(F)(F)F)cc32)s1 | i
68 | O=C(CSc1nnnn1-c1ccc(F)cc1F)Nc1ccc2c(c1)OCCO2 | i
69 | O=C(NCCCc1ccccc1)c1cnccn1 | i
70 | O=C1CC(N2CCN(c3ccc(F)cc3)CC2)C(=O)N1Cc1ccc(N2CCCC2=O)cc1 (stereo not drawn) | i
71 | CCn1c(=O)c([N+](=O)[O-])c(N2CCN(CCO)CC2)c2ccccc21 | 5%
72 | CCOC(=O)C1=CN(C)C=C(C(=O)OCC)C1c1ccc(C(F)(F)F)cc1 | 6%
73 | COCC(=O)N1CCN(c2ccccn2)CC1 | 5%
74 | Cc1ccccc1OCC(=O)Nc1ccccc1C(=O)N1C(C)CCCC1C (stereo not drawn) | i
75 | CC(C)C(=O)Nc1cccc(C(=O)Nc2ccccc2C(C)C)c1 | i
76 | CCN(CC)C(=O)CSc1nc(C2CC2)cc(C(F)(F)F)c1C#N | i
77 | N#CCc1ccc(NC(=O)c2ccc(Cl)c(Cl)c2)cc1 | i
78 | COc1ccccc1CC(=O)Nc1ccc(-c2noc(-c3ccc(F)cc3)n2)cc1 | 0%
79 | CCC(=O)c1ccc(OCC(O)Cn2c(C)nc3ccccc32)cc1 (stereo not drawn) | i
80 | CCOc1ccccc1NC(=O)c1cnn2c(C(F)F)cc(C)nc12 | i
81 | Cc1cccc(NC(=O)Cn2cc(C(=O)c3ccccc3)c3ccccc32)c1C | 9%
82 | O=C(Nc1cccc(F)c1)c1cccc(Cl)c1Cl | 10%
83 | CCC(C)Sc1nnc2c3ccccc3n(CC)c2n1 (stereo not drawn) | 6%
84 | O=C(Nc1ccc(F)c(Cl)c1)c1cccc2c(Br)cccc12 | 9%
85 | CCOC(=O)c1c(N)sc(C)c1-c1ccc(OC)c(OC)c1 | i
86 | COC(=O)NNC(=S)Nc1cccc(C(F)(F)F)c1 | i
87 | Cc1cccc(N(CC(=O)NC2CCCCCC2)S(=O)(=O)c2ccccc2)c1C | 1%
88 | COc1ccc(C2(C(=O)Nc3ccc(C(=O)Nc4ccc(OC)cc4OC)cc3)CCOCC2)cc1 | i
89 | CCOc1ccccc1-c1noc(CCC(=O)Nc2cccnc2)n1 | i
90 | CC(C)(C)NC(=O)c1ccc(NC(=O)c2cccs2)cc1 | i
91 | COCCOC(=O)C1=C(C)NC(=O)CC1c1ccccc1Br (stereo not drawn) | i
92 | Cc1cc(C)c(C#N)c(SCC(=O)Nc2ccc(S(=O)(=O)Nc3ncccn3)cc2)n1 | i
93 | C=CCn1c(SCC(=O)Nc2c(F)cccc2F)nc2sc3c(c2c1=O)CCCC3 | 15%
94 | Cc1cc(OC/C=C/c2ccccc2)c2c(C)cc(=O)oc2c1 | 0%
95 | CCOC(=O)N1CCC(NC(=O)C(Cc2ccccc2)NC(=O)c2ccco2)CC1 (stereo not drawn) | i
96 | O=C(Cc1c(O)c2ccccc2[nH]c1=O)Nc1ccc(Br)cc1 | i
97 | N#C/C(=C\c1cc(Cl)ccc1OCc1c(F)cccc1Cl)c1nc2ccccc2[nH]1 | 4%
98 | CCCCOC(=O)COc1ccc2c(=O)c(Oc3ccc(OCC)cc3)c(C)oc2c1 | 1.6µg/mL*
99 | CCCc1cc(=O)oc2cc(OS(C)(=O)=O)c(Cl)cc12 | i
100 | Cc1cc(C)c(NC(=O)c2cc(NC(=O)c3ccccc3)cc(NC(=O)c3ccccc3)c2)c(C)c1 | 3%
101 | Cc1cc(C)c(S(=O)(=O)n2nc(C)c(Br)c2C)c(C)c1 | 5%
102 | Cc1oc2c(C)c(O)ccc2c(=O)c1-c1ccccc1Cl | 4%
103 | Cc1ccc(S(=O)(=O)N(c2ccc(Br)cc2)C2C=CS(=O)(=O)C2)cc1 (stereo not drawn) | i
104 | Cc1ccc(C(=O)C(C)Oc2ccccc2Cl)cc1 (stereo not drawn) | 47%
105 | Cc1ccccc1-n1c(SCC(=O)N2CCOCC2)nc2ccc(I)cc2c1=O | i

Next entries:
nr | mol | Mtb H37Rv
106 | CCC(Oc1ccccc1)C(=O)NCCc1ccc(OC)c(OC)c1 (stereo not drawn) | i
107 | COc1ccc(S(=O)(=O)Oc2ccc(Cl)cc2Cl)cc1OC | i
108 | O=C1CC(N(C(=O)c2ccco2)c2ccc(F)cc2)C(=O)N1c1ccc(F)cc1 (stereo not drawn) | i
109 | CCC(=O)Nc1cc(C)c(I)cc1C | i
110 | Cc1ccc(OCC(=O)Nc2nnc(C)s2)c(C)c1 | i
111 | CCC(=O)Nc1ccc(Cl)c(NC(=S)NC(=O)c2ccc(F)cc2Cl)c1 | 2%
112 | COc1ccc(S(=O)(=O)N(C)CC(=O)Nc2cccc(F)c2)cc1OC | i
113 | CC(C(=O)N1CCCC1)(c1ccccc1)c1ccccc1 | i
114 | O=C(O)c1ccc(Cl)c(NC(=S)NC(=O)c2cccs2)c1 | 1%
115 | Cc1ccc(CC(=O)Nc2cccc(C)n2)cc1 | 1%
116 | CCC(NC(=O)Nc1ccccc1)C(=O)O (stereo not drawn) | i
117 | O=C(Nc1ccc(N2CCN(Cc3ccccc3F)CC2)cc1)c1cccs1 | i
118 | CCSc1nnc(-c2ccccc2)n1-c1ccccc1 | i
119 | CC(C(=O)Nc1ccccc1C(=O)NCc1ccco1)N(c1ccccc1)S(C)(=O)=O (stereo not drawn) | i
120 | Cc1ccc(CC(=O)Nc2ccc(S(=O)(=O)Nc3nccs3)cc2)cc1 | i
121 | COc1ccc(-n2c(/C=C/c3ccccc3F)nc3ccccc3c2=O)cc1 | 2%
122 | Cc1cc2ccccc2n2c(SCC(=O)Nc3ccc(S(N)(=O)=O)cc3)nnc12 | i
123 | CC(=O)CSc1nc(-c2ccccc2)c(-c2ccccc2)o1 | 2%
124 | S=C(Nc1cccc(Cn2cc(Cl)cn2)c1)Nc1ccc(Br)cc1Cl | i
125 | Cc1cccc(C)c1NC(=S)Nc1ccc(Cl)c(Cl)c1 | ?
126 | CCOC(=O)C(C)Oc1ccc(CNC(C)c2ccccc2)cc1OC (stereo not drawn) | i
127 | O=C(Oc1ccc2c3c(c(=O)oc2c1)CCC3)C1CCCCC1 | 18%
128 | CCc1ccc(C(=O)NC(=S)Nc2cccnc2)cc1 | 4%
129 | CCC(C)c1ccccc1OCC(=O)Nc1ccc(S(=O)(=O)N2CCCCC2)cc1 (stereo not drawn) | 8%
130 | COc1cccc(NC(=O)c2cc(-c3cccc(C)c3)nc3ccccc23)c1 | i
131 | CCOC(=O)Nc1nc(-c2ccc(Cl)c(Cl)c2)cs1 | i
132 | Cc1cccc(OCCCN2CCNCC2)c1C | 0%
133 | COc1cc(C2C(C(=O)c3cc4ccccc4o3)=C(O)C(=O)N2c2nnc(SCc3ccc(F)cc3)s2)ccc1O (stereo not drawn) | i
134 | OC(COc1ccc2c(c1)CCC2)CN1CCOCC1 (stereo not drawn) | 0%
135 | CC(C)CC(=O)NNC(=S)NCc1ccco1 | i
136 | Cc1cc(C(=O)NCc2ccco2)c2cc(F)ccc2n1 | i
137 | CC(=O)c1cnn(-c2ccc(C(=O)O)cc2)c1C | i
138 | O=C(O)Cc1cc(=O)oc2cc(O)ccc12 | i
139 | O=C(Nc1ccc(Cl)cn1)c1cccc(C(F)(F)F)c1 | 3%
